Mito fusion act = blocks mitochondrial division or promotes mitochondrial fusion | S. cerevisiae fusion-defective mutant growth rescue, CellTiterGlo 48 h | actives 0.23% (n = 320,000) | Potency, µM (doses to about 46.1 µM), for inactives: top-dose growth rescue (activation), hits mostly activators;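 further: potency means the concentration at half of the fitted maximal effect; % of control where 0% means no effect; nearly all actives have a fitted effect of over 45% in size; temperature-sensitive fusion mutants such as fzo1-1 at 37 °C on non-fermentable ethanol glycerol medium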
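Read-out: ATP-based luminescence (CellTiterGlo, 10 min ambient) reporting growth of fusion-defective ts yeast after 48 hours at 37C on glycerol/ethanol YPEG medium in the presence of compound.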
AT treatment = potential ataxia-telangiectasia treatment; […] A-T fibroblasts, KAP-1 phosphorylation AlphaLISA; neocarzinostatin DNA damage 30 min before lysis; AID 485349; Potency, µM (series often up to 57.5 µM), for the others: at the top dose activation, usual class: activators; actives 0.19% (n = 320,000); further: potency means the concentration at half of the fitted maximal effect; % of control where 0% means no effect; nearly all actives have a fitted effect of over 45% in size
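ATM-like activity read as KAP-1 phosphorylation via AlphaLISA donor/acceptor antibody pairs after lysis and 6 hr at 25C. Cells were ATM-null patient fibroblasts ([…], hTERT), dosed 60 min, then exposed to the DSB inducer NCS for 30 min.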
TCR activator = activators of T cell receptors | primary human leukocytes, anti-CD3, IL-2 HTRF, 48 h | Potency, µM (top dose mostly 9.22 µM), for inactives: at the top dose activation of IL-2 secretion, hits mostly activators | 330,000 tested, under 10 active | AID 504894; further: % of control where 0% means no effect
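Primary human leukocytes incubated 48 hr with anti-CD3 beads plus compound, without co-stimulation. Secreted IL-2 measured by HTRF (europium cryptate/d2 anti-IL-2 pair, 320 nm excitation, 665 nm emission).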
MBNL1 CUG block = blocks human MBNL1 binding to CUG repeat RNA | TR-FRET MBNL1-His/biotin-(CUG)12 binding, 665/545 ratio | Potency, µM (highest dose often 57.5 µM), for the others: at the highest dose activity change, negative = inhibition, most hits filed as inhibitors | actives 0.036% (n = 280,000) | AID 2675; active means well fitted inhibition curve with a large enough effect in the signal ratio, with a control signal flat, not every such curve was filed as active; inconclusive means small, poorly fitted or top-dose-only effect, or effect the other way, or a change in a side signal; inactive means no such curve, though single readings can be large or run the other way; the % refers to the signal ratio; further: potency means the concentration at half of the fitted maximal effect; on the % scale 0 is the no-effect control and ±100 the full control effect
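TR-FRET between His-tagged MBNL1 and biotin-(CUG)12 RNA, detected with Tb anti-His antibody (0.055 ng/ul) and streptavidin-XL665 (5 nM), 60 min at room temperature. Compounds titrated 92 nM to 58 uM; 665/545 nm ratio normalized to buffer and complex controls.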
TSG101-PTAP inh = blocks PTAP/TSG101 interaction to inhibit HIV-1 budding; Fluorescence polarization, FITC-PTAP peptide / Tsg101 binding; Potency, µM (top dose mostly 115 µM), for inactives: at the top dose activity change, negative = inhibition, most hits filed as inhibitors; 340,000 tested, under 10 active; active means well fitted inhibition curve with a large enough effect in the main read-out, with a control signal flat, not every such curve was filed as active; inconclusive means small, poorly fitted or top-dose-only effect, or effect the other way, or a change in a side signal; inactive means no such curve, though single readings can be large or run the other way; further: potency means the concentration at half of the fitted maximal effect; % of control where 0% means no effect
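Fluorescence polarization binding of Tsg101 binding domain (10 uM final) to FITC-labeled PTAP peptide (50 nM final) in HEPES pH 7.5 buffer with NaCl, Tween 20, EDTA, TCEP. Compounds added before peptide; binding 20 min at RT.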
TSHR antagonist = blocks TSH signaling through the human TSH receptor | P16473 | activity change, negative = inhibition, % at 11.5 µM | TSHR-expressing cells, TSH-stimulated cAMP HTRF, 2 h; hits give low values | actives 0.2% (n = 330,000);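 active means activity change below a set negative limit, meaning inhibition stronger than a set level, cut at about -70% in these data; inconclusive means activity change between two set negative limits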; further: on the % scale 0 is the no-effect control and ±100 the full control effect
Target sequence (P16473 whole entry, looked up): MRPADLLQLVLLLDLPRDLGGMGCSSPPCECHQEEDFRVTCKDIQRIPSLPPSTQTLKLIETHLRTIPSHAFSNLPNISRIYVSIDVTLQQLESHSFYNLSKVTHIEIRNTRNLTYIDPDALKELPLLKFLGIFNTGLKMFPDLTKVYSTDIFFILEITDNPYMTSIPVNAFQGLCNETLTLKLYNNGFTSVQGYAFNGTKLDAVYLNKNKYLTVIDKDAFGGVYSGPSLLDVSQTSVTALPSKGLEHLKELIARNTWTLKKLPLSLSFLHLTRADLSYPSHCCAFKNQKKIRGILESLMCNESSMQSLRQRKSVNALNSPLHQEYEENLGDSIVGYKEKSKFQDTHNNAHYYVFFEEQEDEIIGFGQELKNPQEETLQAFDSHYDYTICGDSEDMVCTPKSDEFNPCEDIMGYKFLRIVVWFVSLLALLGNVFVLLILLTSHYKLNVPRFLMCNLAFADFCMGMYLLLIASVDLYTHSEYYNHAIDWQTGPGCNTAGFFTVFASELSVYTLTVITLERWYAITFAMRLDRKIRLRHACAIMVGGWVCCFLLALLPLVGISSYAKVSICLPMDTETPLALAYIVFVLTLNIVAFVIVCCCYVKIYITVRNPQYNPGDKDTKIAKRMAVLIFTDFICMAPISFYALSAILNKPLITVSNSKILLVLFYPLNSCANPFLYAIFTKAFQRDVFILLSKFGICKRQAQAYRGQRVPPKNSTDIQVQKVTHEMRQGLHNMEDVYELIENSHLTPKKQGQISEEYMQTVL
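Antagonism was scored as loss of TSH-driven cAMP in TSHR cells, stimulated with 4nM TSH (EC80) for 2 hours at 37 deg C and detected by homogeneous HTRF competition immunoassay.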
S-ASM inh = inhibitors of human secretory acid sphingomyelinase | actives 0.006% (n = 340,000) | Potency, µM (doses to about 57.5 µM), for the others: at the top dose activity change, negative = inhibition, most hits filed as inhibitors | AID 504937 | placental ASM, HMU-PC fluorogenic substrate, 60 min; further: potency means the concentration at half of the fitted maximal effect
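Fluorogenic HMU-PC substrate (9 uM final) is turned over by placental ASM in 60 min at 37 C after a 10 min compound preincubation. Reaction ended by alkaline stop (pH 10), with fluorescence read at 386/447 nm.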
a7 integrin act = activates integrin-mediated alleviation for muscular dystrophy; alpha7betagal myoblasts, beta-gal FDG fluorescence, 48 h; Potency, µM (doses to about 38.3 µM), for the others: at the highest dose activation, hits mostly activators; actives 0.064% (n = 350,000); AID 624291;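 further: potency means the concentration at half of the fitted maximal effect; 100% = response of the positive control SU9516; nearly all actives have a fitted effect of over 60% in size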
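alpha7betagal+/- myoblasts (passage 13, 250/well) treated 48 h at 37C with compounds at 1:260 dilution of DMSO stock. Lysed, then beta-galactosidase activity read as FDG fluorescence (ex 480/em 540) after 30 min, with pre-read for autofluorescence.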
Active calls of the source: *; i = inactive; u = inconclusive; x = no result given; [ ] = another dose, or the depositor's remark. Unless noted, the call rests on the fitted dose curve; in most records, active means well fitted curve in the direction sought with a large enough effect; inconclusive means small, poorly fitted or top-dose-only effect, or another doubt; inactive means no such curve, though single readings can be large; an effect the other way counts as inactive or inconclusive. A portion of the library; count on the stated rates, not on these rows.

SMILES	Mito fusion act	AT treatment	TCR activator	MBNL1 CUG block	TSG101-PTAP inh	TSHR antagonist	S-ASM inh	a7 integrin act
Cc1sc2nc(SCCN(C)C)n(-c3ccccc3)c(=O)c2c1-c1ccc(F)cc1	-8%	-2%	3%	2%	-5%	-3	-5%	-51%[inhibitor]
CCOc1ccc(C(=O)Nc2ccc3c(c2)C(=O)NC3=O)cc1	-1%	2%	0%	-1%	1%	-1	72%	-3%
O=S(=O)(Nc1ccc(-c2cn3ccsc3n2)cc1)c1ccc2c(c1)OCCO2	3%	0%	-4%	-9%	3%	-7	-5%	8%
O=C(CSc1nc(NS(=O)(=O)c2ccccc2)cc(=O)[nH]1)Nc1ccc(Cl)cc1	-4%	-6%	-2%	-6%	4%	6	3%	2%
COc1ccc(-c2nnn(CC(=O)Nc3sc4c(c3C#N)CCCC4)n2)cc1	0%	3%	-3%	-3%	-4%	-8	0%	-40%
COc1cccc2cccc(/C=N/n3cnnc3)c12	-7%	u	0%	u	-7%	-3	419%[activator]	-24%
O=C(Nc1c(C(=O)Nc2cccc(F)c2)oc2ccccc12)c1ccc2c(c1)OCO2	0%	3%	x	u	-1%	-7	6%	25%[7.66 µM]
O=C(CNCc1ccccc1Cl)Nc1ccc(C(=O)N2CCCCC2)cc1	3%	0%	-10%	-4%	3%	27	-1%	-9%
Cc1cccc(C)c1Nc1nnc(SCC(=O)Nc2sccc2C#N)s1	0%	7%	-1%[46.1 µM]	-7%	-2%	-5	-4%	4%
Nc1c(-c2ccccc2)c(CSc2nc3ccccc3[nH]2)nn1-c1ccc(Cl)cc1	u	-8%	-6%[46.1 µM]	x	-1%	31	-3%	-15%
Cc1ccc(C)c(NC(=S)NC(NC(=O)/C=C/c2ccccc2)C(Cl)(Cl)Cl)c1 (stereo not given)	-2%	-1%	5%	3%	-6%	-5	-4%	-56%[inhibitor]
CCNS(=O)(=O)c1ccc(NC(=S)N2CCc3ccccc32)cc1	0%	7%	11%	-1%	-5%	-1	-4%	-3%
Cc1ccc(-c2nc3ccccc3s2)cc1NC(=S)NC(=O)c1ccccc1	-3%	7%	2%	-11%	0%	11	-5%	20%
CC(C)N1CCc2c(sc(NC(=S)NC(=O)c3ccccc3)c2C#N)C1	u	1%	12%[46.1 µM]	u	3%	-7	46%[activator]	-5%
O=C(Nc1cccc2c1CCCC2)c1ccccc1Br	1%	5%	3%	-14%	-3%	-3	1%	25%
N=C(N)n1c(N)nc2ccccc2c1=O	3%	-11%	-2%	-8%	-6%	14	4%	0%
N#Cc1c(NC(=S)NC(=O)c2ccccc2)sc2c1CCN(CCc1ccccc1)C2	3%	10%	11%[46.1 µM]	17%	x	-10	x	x
Cc1coc2cc3oc(=O)c(CCC(=O)O)c(C)c3cc12	8%	-6%	3%	-6%	-2%	-16	34%[activator]	-20%
Brc1ccc(/C=N/Nc2nc3ccccc3o2)cc1	-37%[inhibitor]	6%	-1%	5%	-1%	-14	-1%	11%
CC(=O)Nc1ccc(NC(=O)c2ccc(COc3ccccc3)cc2)cc1	-2%	0%	x	2%	-10%	-5	-2%	0%
CCN1CCN(c2c(Cl)cccc2NC(=O)c2ccco2)CC1	1%	2%	-1%	-6%	-5%	8	6%	2%
Fc1ccc(CSc2ccc3nnc(-c4ccccn4)n3n2)cc1	-3%	1%	0%	5%	-1%	-2	-6%	18%
NS(=O)(=O)c1ccc(NC(=O)c2ccc3c(c2)CCCC3)cc1	12%	1%	-1%	13%	5%	4	-2%	-5%
COc1ccccc1C(=O)Nc1sc2c(c1C#N)CCC2	3%	-5%	-1%	18%	0%	24	2%	20%
O=C(NC(=S)Nc1ccccc1)c1ccc(-c2ccccc2)cc1	-4%	2%	-1%	x	-5%	-5	6%	21%
The list goes on.
SMILES	Mito fusion act	AT treatment	TCR activator	MBNL1 CUG block	TSG101-PTAP inh	TSHR antagonist	S-ASM inh	a7 integrin act
CSCc1cc(N(C)c2ccccc2)nc(-c2ccccn2)n1	7%	7%	9%	-1%	1%	-6	0%	0%
O=C(CSc1ccccn1)Nc1ccc(Cl)cn1	1%	11%	2%	-1%	-9%	-15	1%	1%
NS(=O)(=O)c1ccc(NC(=S)Nc2ccc(OCc3ccccc3)cc2)cc1	3%	-2%	-3%	4%	-1%	2	-3%	17%
C=CCc1ccc(OCC(O)CN2CCN(c3ccccc3)CC2)c(OC)c1 (stereo not given)	-22%	20µM*	-7%	2%	1%	6	-1%	-44%
Cc1ccc(-c2csc(NC(=O)/C=C/c3cccs3)n2)cc1C	u	-4%	8%[46.1 µM]	1%	0%	-28	-13%	-5%
O=C(NC(Cc1c[nH]c2ccccc12)C(=O)N/N=C/c1cccc2ccccc12)c1cccs1 (stereo not given)	-6%	4%	4%[46.1 µM]	1%	-7%	2	-19%	-27%
O=C(Nc1ccc(/C=C/c2nc3ccccc3o2)cc1)c1ccc(F)cc1	-2%	5%	-1%	-1%	6%	-6	423%[activator]	3%
COc1cc2c(cc1OC)CN(C(=O)COc1ccccc1C#N)CC2	4%	-23%	3%	10%	-1%	5	0%	-19%
COc1cc(OC)c2c(=O)cc(-c3cccnc3)oc2c1	-1%	0%	11%	-4%	-1%	-13	0%	-15%
S=C(NCCC(c1ccccc1)c1ccccc1)Nc1cccc(Cl)c1	-11%	6%	1%	-3%	-3%	-29	-3%	-11%
COc1ccccc1C(=O)NC(=S)N1CCCc2ccccc21	-5%	5%	0%	0%	-1%	21	1%	-51%[inhibitor]
CCNC(=S)NNC(=O)c1cccc(Br)c1	-9%	1%	5%	-5%	1%	14	2%	-15%
O=C(CNCc1cccs1)Nc1ccc(OC(F)(F)F)cc1	6%	u	4%	98%	0%	12	-5%	0%
COc1ccc(CNC(=O)Cc2csc(Nc3nc(=S)[nH]c4ccccc34)n2)cc1	-11%	9%	1%	9%	-2%	-10	10%	-21%
CCN(CC)CCn1c(NS(=O)(=O)c2ccc(Cl)cc2)nc2ccccc21	5%	12%	-2%	-4%	-4%	-12	-2%	2%
O=C(CCc1nc2ccccc2[nH]c1=O)OCC(=O)c1cccc2ccccc12	0%	-4%	x	37%[activator]	x	-2	x	x
COc1cc2[nH]c(C(=O)N3CCC(Cc4ccccc4)CC3)cc2c(OC)c1OC	4%	4%	5%	-2%	-1%	-4	-18%	0%
CC(=O)NCCNC(=O)c1ccc(CSc2ccc(Cl)cc2)cc1	-3%	0%	8%	-2%	-3%	0	0%	-3%
C/C(=N\NC(=O)CC1N=C(Cc2ccccc2)NNC1=O)c1ccc(Cl)cc1Cl (stereo not given)	1%	-2%	-1%	0%	-3%	10	0%	-19%
C=CCNC(=O)c1ccccc1NC(=O)c1ccc(Cl)c(S(=O)(=O)Nc2cc(C)ccc2C)c1	-1%	1%	-3%	0%	-3%	7	-9%	-4%
COc1ccc(C2C(C(C)=O)=C(O)C(=O)N2CCCn2ccnc2)cc1 (stereo not given)	1%	1%	2%	-3%	-3%	-1	2%	18%
CC1CCN(CCCNC(=O)c2cc3c(Cl)nc4ccccc4c3s2)CC1	3%	0%	5%	-5%	-5%	2	-3%	-70%[inhibitor]
COC(=O)c1c(N)n(-c2ccc(NC(C)=O)cc2)c2nc3ccccc3nc12	-2%	7%	0%	u	-3%	-4	i	15%
O=[N+]([O-])c1cc(C(F)(F)F)ccc1N1CCC(O)CC1	-1%	-3%	5%	u	-1%	28	-12%	2%
Cc1cc(C)c(C)c(S(=O)(=O)NC2CCN(Cc3ccccc3)CC2)c1C	0%	13%	0%	-1%	-5%	-3	1%	-43%

No new results follow: an excerpt of the list.
SMILES	Mito fusion act	AT treatment	TCR activator	MBNL1 CUG block	TSG101-PTAP inh	TSHR antagonist	S-ASM inh	a7 integrin act
CSCc1cc(N(C)c2ccccc2)nc(-c2ccccn2)n1	7%	7%	9%	-1%	1%	-6	0%	0%
O=C(CSc1ccccn1)Nc1ccc(Cl)cn1	1%	11%	2%	-1%	-9%	-15	1%	1%
NS(=O)(=O)c1ccc(NC(=S)Nc2ccc(OCc3ccccc3)cc2)cc1	3%	-2%	-3%	4%	-1%	2	-3%	17%
C=CCc1ccc(OCC(O)CN2CCN(c3ccccc3)CC2)c(OC)c1 (stereo not given)	-22%	20µM*	-7%	2%	1%	6	-1%	-44%
Cc1ccc(-c2csc(NC(=O)/C=C/c3cccs3)n2)cc1C	u	-4%	8%[46.1 µM]	1%	0%	-28	-13%	-5%

Carrying on.
SMILES	Mito fusion act	AT treatment	TCR activator	MBNL1 CUG block	TSG101-PTAP inh	TSHR antagonist	S-ASM inh	a7 integrin act
COC(=O)COc1ccc(/C=C2\SC(=O)N(CC(=O)Nc3ccccc3F)C2=O)cc1	0%	0%	x	2%	-9%	-8	120%[activator]	1%
Cc1ccc(C2=NN(C(=S)Nc3ccccc3)C(c3ccco3)C2)cc1 (stereo not given)	-2%	-7%	7%	10%	-4%	-13	-10%	-42%
CC(C)n1c(C(O)c2ccc3c(c2)OCO3)nc2ccccc21 (stereo not given)	23%	-5%	x	-11%	-7%	2	-2%	7%
Cc1ccc(NC(=O)CN2C(=O)N/C(=C\c3cccnc3)C2=O)cc1	1%	5%	-1%	8%	0%	11	2%	23%
Cc1cc(C)n(-c2nc(-n3nc(C)cc3C)c3c4c(sc3n2)COC(C)(C)C4)n1	-1%	3%	x	8%	x	-6	x	x
C/C(=N\NC(=O)c1nnn(-c2nonc2N)c1CSc1ccc(Cl)cc1)c1ccco1	0%	6%	-1%	-2%	1%	9	-8%	u
COc1ccc(OCCSc2nnc(CCNC(=O)c3ccc(OC)cc3)n2C)cc1	-3%	2%	x	-7%	x	-3	4%	4%
